# HPGD block: qHTS Assay for Inhibitors of HPGD (15-Hydroxyprostaglandin Dehydrogenase); purified HPGD, NADH fluorescence kinetic, PGE2 substrate; 15-hydroxyprostaglandin dehydrogenase [NAD(+)] (Homo sapiens), P15428; Potency, µM, for the others: at the top dose activity change, negative = inhibition, actives largely listed as inhibitors; 4.3% of 150,000 active; active = well fitted inhibition curve with a large enough effect (not every such curve was filed as active); inconclusive = small, poorly fitted or top-dose-only effect, or another doubt; inactive = no such curve, though single readings can be large or run the other way;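 further: top concentration of the series not given in the record; plate controls included wells without enzyme; inactives centre near -10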
# Target sequence (P15428 whole entry, looked up): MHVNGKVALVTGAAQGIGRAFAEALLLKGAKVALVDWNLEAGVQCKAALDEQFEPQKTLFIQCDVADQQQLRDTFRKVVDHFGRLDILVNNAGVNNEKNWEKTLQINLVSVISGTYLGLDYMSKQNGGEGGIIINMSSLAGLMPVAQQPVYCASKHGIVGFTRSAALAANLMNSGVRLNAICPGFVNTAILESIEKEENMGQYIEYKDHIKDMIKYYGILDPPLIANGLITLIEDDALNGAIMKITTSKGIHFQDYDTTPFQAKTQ
#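 20 nM HPGD preincubated 15 min at room temperature with compound in 50 mM Tris-HCl pH 8, 0.01% Tween 20. Started with 1 mM NAD+ and 30 uM prostaglandin E2; NADH fluorescence (360/450 nm) read 5 times over 30-s intervals, last minus first.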
# * marks the source's active call; other numbers are inactive results; ? = inconclusive; & = joins results of further samples. On the % scale 0 is the no-effect control and ±100 the full control effect; potency means the concentration at half of the fitted maximal effect. Some of the compounds tested. The share of hits here may be higher or lower than overall.
HPGD block,SMILES
-6%,COc1ccc(NC(=O)CN2CCN(c3nc(-c4cccc(OC)c4)cs3)CC2)cc1
-13%,COc1ccc(S(=O)(=O)n2c(CCN3CCOCC3)nc3ccccc32)cc1
?,COc1cc2c(cc1OC)/C(=C/C(=O)N1CCOCC1)NC(C)(C)C2
-25%,CCN(C(=O)CSc1nnc2c3ccccc3n(CC)c2n1)C1CCS(=O)(=O)C1 (stereo not given)
-3%,COc1cc(OC)c(NS(=O)(=O)c2coc(C(N)=O)c2)cc1Cl
-6%,CN(C)CC(C)(C)CNS(=O)(=O)CC12CCC(CC1=O)C2(C)C (stereo not given)
2µM*,O=C(NCc1ccco1)c1ccccc1Br
-11%,CCNc1ncc2nc(CCc3ccccc3)c(=O)n(-c3ccc(OC)cc3)c2n1

# (further entries)
HPGD block,SMILES
-18%,Cc1ccc(S(=O)(=O)N2CCC(=O)N(C(COCc3cccc(C(F)(F)F)c3)Cc3ccccc3)CC2)cc1 (stereo not given)
-1%,CCn1c(SCc2nc(-c3ccccc3)no2)nnc1-c1ccco1
-10%,N#CC1=C(SCC(N)=O)NC2=C(C(=O)c3ccccc32)C1c1ccc(Cl)cc1 (stereo not given)
-10%,O=C(CNC(=O)c1ccncc1)N/N=C/c1cc(Br)ccc1O
-12%,O=c1c2c3nc4ccccc4nc3n(/N=C/c3cccs3)c2ncn1-c1ccccc1
-12%&-15%&-28%,O=[N+]([O-])c1cccc2c(Br)[nH]nc12
-4%,C=CCNC(=O)CN1CCC(O)(c2ccccc2)CC1
0%,CCC(=O)N1CCc2cc(S(=O)(=O)NC(C(=O)N3CCc4ccccc4C3)C(C)C)ccc21 (stereo not given)

# Following part
HPGD block,SMILES
-6%,COc1cccc(N/C=C(\C#N)c2ccc(OCCCF)cc2)c1
-8%,CCCCCCN1CC(O)=C(c2ccccc2)C1=N
-12%,CCNC(=S)N=Nc1c(O)[nH]c2ccc(C(C)C)cc12
-15%,COc1ccccc1NC(=S)NNC(=O)c1cc(C)nn1C
-7%,Cc1ccc(C)c(S(=O)(=O)Nc2ccccc2C(=O)Nc2ccccc2N2CCOCC2)c1
?,COc1ccc(-c2cc(C(F)(F)F)nc(SCC(=O)NCc3cccs3)n2)cc1
-17%,COc1ccc(Cn2nnnc2C(c2cccs2)N2CCN(c3ccccc3)CC2)cc1 (stereo not given)
-18%,COc1cc(S(=O)(=O)N2CCCCC2)ccc1NC(=O)/C=C/c1ccccc1

# Exported comma-delimited: part of the list above
compound,HPGD block
CCNC(=S)N=Nc1c(O)[nH]c2ccc(C(C)C)cc12,-12%
COc1ccccc1NC(=S)NNC(=O)c1cc(C)nn1C,-15%

# (more compounds)
HPGD block,SMILES
-16%,O=S(=O)(c1ccc(F)cc1)N1CCN(c2nc(-c3ccc(F)cc3)cs2)CC1
-10%,O=C(Cn1c(-c2cscn2)nc2ccccc21)Nc1cc(F)ccc1F
-6%,Cc1cccn2c(NC(=O)c3cccs3)c(-c3ccccc3)nc12
-16%,COc1ccc([N+](=O)[O-])cc1NC(=O)CSc1nccc(C)n1
25µM*,COC(=O)c1cccc(NC(=O)CCc2ccccc2)c1
0%,COC(=O)C(N)Cc1ccc(O)c(O)c1 (stereo not given)
-7%,COc1ccc2c(c1)-c1ccccc1S(=O)(=O)N2C
-8%,CCOc1cc(N2CCOCC2)c(OCC)cc1NC(=O)COC(=O)[C@H](Cc1c[nH]c2ccccc12)NC(C)=O

# (further entries)
HPGD block,SMILES
-14%,CC(NC(=O)Cn1cnnn1)C12CC3CC(CC(C3)C1)C2 (stereo not given)
-21%,Cc1ccccc1-c1nc2cc(N)ccc2o1
5%,CCN(CC)CCCN1C(=O)C(O)=C(C(=O)c2cc3ccccc3o2)C1c1ccccn1 (stereo not given)
-13%,CC1CCC(NC(=O)c2ccc(NC(=O)c3ccc(=O)[nH]c3)cc2)CC1 (stereo not given)
0%,Cc1cccc(NC(=O)NCCN2C(=O)C3C4C=CC(C4)C3C2=O)c1 (stereo not given)
-28%,O=C(NCSc1ccncn1)c1ccccc1
-26%,O=C(CSc1nnc2c(Cl)cc(Cl)cn12)NC1CCS(=O)(=O)C1 (stereo not given)
-7%,COc1ccc(CCNC(=O)c2cc(-c3cccs3)on2)cc1OC

# (continued)
HPGD block,SMILES
?,CN1CCN(CCCCOc2ccc(F)cc2)CC1
-18%,CC(C)CCNc1nnnc2c1sc1nc(N3CCOCC3)c3c(c12)CC(C)(C)SC3
-15%,Cc1ccc(N2CC3=C(C2=O)C(c2ccccc2)NC(=O)N3C)cc1 (stereo not given)
-8%,N#CCCN1CCN(C(CNS(=O)(=O)c2ccc(Cl)cc2)c2ccccc2)CC1 (stereo not given)
-19%,Cc1cccc(OCCOCCSc2ncccn2)c1
?,COc1ccc(CCNc2cc(C)nc3c(-c4ccc(Cl)cc4)c(C)nn23)cc1OC
-25%,COc1cc(-c2nc3ccccc3c(=O)n2N)cc(OC)c1OC
-13%,CC(C)=CC(=O)Nc1ccc2c(c1)OCO2

# The listing continues:
HPGD block,SMILES
-16%,COc1ccccc1N1CCN(/N=C/c2cc(OC)c(OC)c(OC)c2)CC1
7%&-1%&-1%,CCCCCCCC/C=C\CCCCCCCC(=O)NCCO
-23%,O=C(COc1ccc(F)cc1Br)NCc1ccccn1
-4%,COc1cccc(C(=O)/C=C/Nc2ccc(NC(C)=O)cc2)c1
-11%,C1CCc2c(nc3nnnn3c2NC2CCCC2)C1
-10%,Cc1[nH]c2c(ccc3ccccc32)c1C1C(CCN)C1(C)C (stereo not given)
-27%,O=C(Nc1ccccc1)c1c(F)cccc1F
-8%,O=C(CN1C(=O)c2cccc3cccc1c23)N1CCc2ccccc2C1

# (cont.)
HPGD block,SMILES
-3%,O=C(c1ccco1)N1CCN(C(=O)C2Cc3ccccc3CN2S(=O)(=O)c2ccc(F)cc2)CC1 (stereo not given)
-6%,COCCCN1C(=O)C(O)=C(C(=O)c2ccco2)C1c1ccc(Br)cc1 (stereo not given)
-5%,CCc1cccc(CC)c1NC(=O)c1ccccc1CCc1ccccc1
-12%,Cc1cc(C)nc(-n2nc(C)cc2NC(=O)COC(=O)CCC(=O)c2cccs2)n1
-29%,O=C(COC(=O)c1cccnc1Nc1ccccc1F)NCc1ccc2c(c1)OCO2
2%,CC(C)(C)NC(=O)c1cnn(-c2ccccc2)c1NC(=O)c1ccccc1
-9%,Cc1cccc(Nc2cc(=O)[nH]c(=O)[nH]2)c1
?,Cc1nc2nc(-c3ccco3)[nH]n2c(=O)c1Cc1ccccc1

# The results go on:
HPGD block,SMILES
-10%,O=C(O)c1ccccc1Cl
-4%,Cn1c(=O)c2c(nc(NCCNC(=O)c3ccco3)n2Cc2ccc(Cl)cc2Cl)n(C)c1=O
-7%,CCn1c(=O)n(-c2ccc(Cl)cc2)c(=O)c2c3c(sc21)COC(C)(C)C3
-12%,CCCCc1nnc(SCCSc2nnc(CCCC)n2N)n1N
-13%,COc1ccc(-c2c(O)c(C#N)c(-c3ccccc3)n(-c3ccc(OC)cc3)c2=O)cc1
-10%,COc1ccc(F)cc1S(=O)(=O)N1CC(C)CC(C)C1 (stereo not given)
-3%,O=C(CSc1nnc(Cc2ccccc2)n1-c1ccccc1)NNC(=O)Cc1ccccc1
-20%,CC(OC(=O)CN1C(=O)NC(C)(C)C1=O)C(=O)c1ccccc1 (stereo not given)

# An excerpt of these results, bar-delimited.
Molecule | HPGD block
COc1ccc(-c2c(O)c(C#N)c(-c3ccccc3)n(-c3ccc(OC)cc3)c2=O)cc1 | -13%
COc1ccc(F)cc1S(=O)(=O)N1CC(C)CC(C)C1 (stereo not given) | -10%
O=C(CSc1nnc(Cc2ccccc2)n1-c1ccccc1)NNC(=O)Cc1ccccc1 | -3%
CC(OC(=O)CN1C(=O)NC(C)(C)C1=O)C(=O)c1ccccc1 (stereo not given) | -20%

# Other results follow:
HPGD block,SMILES
-5%,O=C(Cn1c(=O)n(Cc2ccco2)c(=O)c2ccccc21)NCC1CCCO1 (stereo not given)
?,Cc1cc(C)n(CCc2nc(-c3ccco3)cs2)n1
-16%,O=C1CC(c2cccs2)Cc2nc(NCC3CCCO3)ncc21 (stereo not given)
?,O=C(Cn1cccc1)Nc1ccc(OC(F)(F)F)cc1
-13%,O=C(NCc1ccc(Cl)cc1)c1ccc(OCC2CCCO2)cc1 (stereo not given)
?,O=C(Nc1ccc(-c2nc3cc(Cl)ccc3o2)cc1)C1CCCO1 (stereo not given)
18µM*,Cc1ccc(-c2noc(CCC(=O)NCC3CCCO3)n2)cc1 (stereo not given)
-11%,CCOC(=O)c1ccc(N/C=C2\CCCCC2=O)cc1

# (next part)
HPGD block,SMILES
-7%,COc1ccccc1OCc1ccc(C(=O)N2CCOCC2)o1
-6%,O=C(c1cccc(C(F)(F)F)c1)N1CCC(O)(CS(=O)(=O)Cc2ccccc2)CC1
-3%,CCOc1ccc2nc(SCC(=O)NCc3ccc4c(c3)OCO4)[nH]c2c1
-9%,CCOC(=O)C1=C(C)N=c2s/c(=C\C(=O)OC)c(=O)n2C1c1ccc(OC)cc1 (stereo not given)
-24%,CCc1cc2c(SCC(=O)O)ncnc2s1
11µM*,CCN(CC)c1ccc(/C=C2\CCC(/C=C(\C#N)C(=O)Nc3ccccc3F)=C2N2CCOCC2)cc1
-23%,O=C(CSc1nnc(-c2n[nH]c3ccccc23)n1-c1ccccc1)Nc1ccccc1Cl
-12%,Cc1cccc(-n2c(CNC(=O)c3ccccc3)nnc2SCC(=O)Nc2nccs2)c1

# More entries follow:
HPGD block,SMILES
-5%,COCCOCCn1cnc2ccccc21
?,CNc1oc(-c2ccccc2)nc1C#N
-15%,NS(=O)(=O)c1ccc(CCNC(=O)CN2CCN(c3cccc(Cl)c3)CC2)cc1
-7%,CCOC(=O)C1CCN(C(=O)Cc2c(C(=O)O)n(CC)c3ccccc23)CC1
-24%,COc1ccc2[nH]c(=O)c(CN(C(=O)c3cccnc3)c3ccccc3OC)cc2c1
-3%,N#Cc1ccsc1NC(=O)CN1CCN(c2ccccn2)CC1
-14%,CCOC(=O)C1=C(C)OC(N)=C(C#N)C1c1ccc(O)c(OC)c1 (stereo not given)
4%,CCc1ccc(C(C(=O)NC2CCCC2)N(C(=O)/C=C/C(=O)Nc2cc(C)on2)c2ccccc2C)cc1 (stereo not given)

# The results go on.
HPGD block,SMILES
-24%,CC(C)Cc1nnc(NC(=O)c2cc(-c3ccccc3)nc3ccccc23)s1
-16%,CCOc1ccc(NC(=S)N(CCCN2CCOCC2)Cc2cn(C)c3ccccc23)cc1
-16%&1%&2%,CN(C)CCOC(=O)COc1ccc(Cl)cc1
-2%,CCCn1nc(C(=O)OCC(=O)Nc2ncc(Cl)c(C)c2Cl)c2ccccc2c1=O
0%,O=C(Nc1ccccc1F)c1ccco1
-6%,Cc1ccc(-c2nc3ccccc3s2)cc1NC(=S)NC(=O)c1cccc2ccccc12
-7%,Cc1cccc(C)c1Nc1nnc(SCC(=O)NCc2cccs2)s1
?,CCc1cc(=O)oc2cc(C)cc(OC(C)C(=O)O)c12 (stereo not given)

# Next section.
HPGD block,SMILES
-10%,C/C(=N\NC(N)=O)C1(C)CCCCC1
-7%,O=C(NCC12CC3CC(C1)CC(CNC(=O)N1CCCC1)(C3)C2)N1CCCC1
-4%,CCN1CCN(C2CCN(C(C)=O)CC2)CC1
-10%,Cc1c(C#N)c2ccccc2n1CC(=O)NCC1CCCO1 (stereo not given)
-9%,Cc1ccc2c(c1)N(C(=O)CSc1nncn1C)C(C)(C)c1ssc(=S)c1-2
-26%,COc1cnc(N(C)C)nc1Sc1ccc(Cl)cc1
?,COc1ccccc1-c1nc(C#N)c(N2CCC(C(N)=O)CC2)o1
?,CCOc1ccc(-c2nc(C#N)c(NCC3CCCO3)o2)cc1 (stereo not given)

# Continued.
HPGD block,SMILES
-18%,Cc1c(NCc2cc(Cl)ccc2O)c(=O)n(-c2ccccc2)n1C
-10%,O=C1C(=O)N(CCCN2CCOCC2)C(c2cccs2)/C1=C(/O)c1ccc2c(c1)OCO2 (stereo not given)
-3%,O=S(=O)(CCSc1nc2ccccc2o1)c1nc2ccccc2s1
-7%,COC(=O)c1ccccc1NC(=O)C1CC(=O)N(c2ccc(F)cc2)C1 (stereo not given)
-8%,Cc1ccc(C(=O)O)cc1S(=O)(=O)N1CCC(C(=O)O)CC1
-9%,O=C(O)c1nc2cc(Cl)c(Cl)cc2[nH]c1=O
-16%,CCCCn1c(/N=C/c2ccc(N(C)C)cc2)nc2ccccc21
-2%,COc1ccc(NC(=O)CC2CCCC2)cc1S(=O)(=O)N1CCCCC1

# Shown as a hit in HPGD block, among the entries above:
HPGD block,SMILES
2µM*,O=C(NCc1ccco1)c1ccccc1Br
25µM*,COC(=O)c1cccc(NC(=O)CCc2ccccc2)c1
18µM*,Cc1ccc(-c2noc(CCC(=O)NCC3CCCO3)n2)cc1 (stereo not given)
11µM*,CCN(CC)c1ccc(/C=C2\CCC(/C=C(\C#N)C(=O)Nc3ccccc3F)=C2N2CCOCC2)cc1

# Remaining list, next part:
HPGD block,SMILES
-10%,O=C(CSc1nnc(-c2cnccn2)n1Cc1ccco1)Nc1ccc(Br)cc1
-3%,Cc1cccc(N2CCN(C(=O)C3CCN(S(=O)(=O)c4cccc5cccnc45)CC3)CC2C)c1 (stereo not given)
-6%,Cc1ccc(/C=N/n2c(C)nnc2C)cc1
-17%,O=C(NCCc1ccc(Cl)cc1)/C(=C/c1cccnc1)NC(=O)c1ccccc1
-13%,O=C(/C=C/c1ccc(Br)cc1)NC1CCCCCC1
?,CCCC(=O)Nc1ccc(-c2nc3cc(C)ccc3o2)cc1
-21%,COCCNC(=O)c1onc(CSc2cccc(C)c2)c1C(=O)O

# Bioassay records as filed in PubChem BioAssay.
